Rce1 inhib – yeast Rce1p protease inhibitors, primary screen, biochemical, fluorescence, cell-free homogeneous. CAAX prenyl protease 2 (Saccharomyces cerevisiae (strain ATCC 204508 / S288c)), Q03530. yeast membranes, quenched prenylated peptide cleavage fluorescence. calls only. 290,000 tested, 0.27% active. AID 2563, 2010;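 active = fall in fluorescence gain of 50% or more versus controls, with final raw signal at or below 3038400; inconclusive = same 50% fall but final raw signal above 3038400; inactive = fall in fluorescence gain under 50%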;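 also: plate controls were neutral control wells for no effect and wells lacking membranes for full effect; tested at 10 µM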
Target sequence (Q03530 whole entry, looked up): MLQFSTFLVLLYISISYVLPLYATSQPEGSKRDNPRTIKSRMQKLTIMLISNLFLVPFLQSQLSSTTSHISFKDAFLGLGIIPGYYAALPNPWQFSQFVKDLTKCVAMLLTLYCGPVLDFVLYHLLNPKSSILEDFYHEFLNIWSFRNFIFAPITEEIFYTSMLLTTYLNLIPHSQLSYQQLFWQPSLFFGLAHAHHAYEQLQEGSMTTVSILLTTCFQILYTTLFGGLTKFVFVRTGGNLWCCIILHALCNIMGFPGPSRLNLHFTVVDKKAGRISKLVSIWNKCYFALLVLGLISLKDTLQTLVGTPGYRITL
UUG fidelity – modulators of yeast start codon fidelity, primary screen, whole organism, S. cerevisiae, single point, plate reader. S. cerevisiae UUG-firefly luciferase reporter, luminescence/redox ratio. activity score, % at 18.7 µM. 350,000 tested, 0.13% active. AID 602363, 2012;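 active = replicate mean at a twofold rise or more, about +100% in these data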;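 also: firefly luciferase made from a UUG start codon reports start codon fidelity; reporter light over untreated wells divided by growth signal over untreated wells; some hits fall short of that in this replicate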
eIF4H inh – human eIF4H binding inhibitors, primary screen, translation initiation inhibitor project, biochemical, uHTS, fluorescence polarization; Eukaryotic translation initiation factor 4H (Homo sapiens), Q15056; eIF4H fluorescence polarization binding assay; 290,000 tested, 0.94% active; inhibition, % at 35 µM; AID 2012, 2009;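 active = 50% or more with normal probe brightness, or confirmed in later tests; inconclusive = above 50% with abnormal brightness, or retests that disagree; inactive = below 50% or failed in later tests; about a fifth of its hits are not listed in these tables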;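 also: calls also rest on retests at 20 µM and on dose response follow-up; 0% = protein and probe with vehicle and 100% = probe without protein; strong numbers were not always called active; many hits fall short of the cut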
HIV Env fusion – inhibitors of HIV-1 Env-driven cell-cell fusion, primary screen, HeLa-JRFL effector, CEM21 target cells, luciferase; inhibition, % at 12.3 µM; 360,000 tested, 1.1% active;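 active = mean replicate inhibition score of at least 50 and every replicate individually at or above 50; inconclusive = only one of the two criteria met; inactive = mean below 50 and not all replicates reaching 50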;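 also: 0% = plate neutral controls and 100% = maraviroc near 300 nM; one replicate is shown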
CSC inhib – cancer stem cell viability inhibitors, primary screen, luminescence. cancer stem cell-like cells viability. inhibition, % at 7.5 µM. 300,000 tested, 1.1% active. AID 2717, 2010;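 active = mean at 75% or more and at least half the replicates too; inconclusive = mean and replicates disagree; tested in HMLE shEcad cells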;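 also: 0% = median of negative and 100% = median of positive control wells; the first replicate is given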
PABP polyA inh – PABP poly(A) RNA binding inhibitors, primary screen, biochemical, fluorescence polarization, uHTS | Polyadenylate-binding protein 1 (Homo sapiens), P11940 | inhibition, % at 35 µM | 290,000 tested, 1% active;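 active = 50% or more with normal probe brightness, or confirmed in later tests; inconclusive = above 50% with abnormal brightness, or retests that disagree; inactive = below 50% or failed in later tests; about a fifth of its hits are not listed in these tables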;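 also: calls also rest on retests at 20 µM and on dose response follow-up; controls were probe without protein and protein plus probe with vehicle; some compounds called inactive have numbers as strong as hits; many hits fall short of the cut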
Target sequence (P11940 whole entry, looked up): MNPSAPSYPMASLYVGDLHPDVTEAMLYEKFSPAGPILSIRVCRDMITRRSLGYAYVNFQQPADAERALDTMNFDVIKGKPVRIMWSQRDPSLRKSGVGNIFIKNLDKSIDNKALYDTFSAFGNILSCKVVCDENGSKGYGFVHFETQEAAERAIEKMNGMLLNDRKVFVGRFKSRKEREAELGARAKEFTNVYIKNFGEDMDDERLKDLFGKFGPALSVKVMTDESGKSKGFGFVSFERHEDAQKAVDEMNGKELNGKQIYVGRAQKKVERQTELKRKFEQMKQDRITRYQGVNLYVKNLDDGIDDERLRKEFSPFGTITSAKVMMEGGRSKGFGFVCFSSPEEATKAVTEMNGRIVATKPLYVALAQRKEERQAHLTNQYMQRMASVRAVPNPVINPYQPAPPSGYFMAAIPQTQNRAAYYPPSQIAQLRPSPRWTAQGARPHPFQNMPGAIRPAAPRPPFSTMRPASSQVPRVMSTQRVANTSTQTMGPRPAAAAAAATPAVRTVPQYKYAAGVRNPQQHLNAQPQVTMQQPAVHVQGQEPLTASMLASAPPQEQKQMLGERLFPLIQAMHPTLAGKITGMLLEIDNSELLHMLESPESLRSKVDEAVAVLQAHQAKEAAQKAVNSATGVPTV
MT1-MMP act inh – blockers of MT1-MMP proenzyme processing, primary screen, HT1080 RFP-PRO-GFP cells, GFP/RFP fluorescence; 360,000 tested, 0.061% active; Matrix metalloproteinase-14 (Homo sapiens), P50281; GFP/RFP ratio change, % at 20 µM; GFP/RFP ratio fluorescence, overnight; percent of plate control window, DMSO zero;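 active = GFP/RFP ratio change of at least 30% with cell ATP level not reduced by more than half and red fluorescence within 50% of control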; also: strong numbers were not always called active
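Compound: 20 µM single dose, 1% DMSO / System: HT1080 RFP-PRO-GFP cells / Controls: DMSO and RFP-L50D-GFP cell wells / Read-out basis: GFP/RFP fluorescence ratio / Schedule: overnight compound exposure at 37 °C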
MT1-MMP act inh RFP – recorded beside MT1-MMP act inh, whose call it bears; RFP signal change, %; measured here: RFP expression control read;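 0 = vehicle wells; hits needed this value within 50% of zero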
Numbers without * were called inactive; [ ] = remark or other dose.

CCOc1cc(/C=N/NC(=O)COc2ccc(Cl)cc2)ccc1OS(=O)(=O)c1ccccc1 was read as Rce1 inhib inactive, UUG fidelity -16, eIF4H inh -2, HIV Env fusion inconclusive, CSC inhib 61, PABP polyA inh 0, MT1-MMP act inh 5 and MT1-MMP act inh RFP -2.
`Cc1cc(-c2ccc(S(=O)(=O)N3CCN(c4cccc(C)c4C)CC3)s2)on1` gave Rce1 inhib inactive, UUG fidelity 5, eIF4H inh 2, HIV Env fusion -5, CSC inhib 37, PABP polyA inh 9, MT1-MMP act inh -8 and MT1-MMP act inh RFP -7.
For Cc1ccc(NC(=O)Cn2ncn3c(cc4ccccc43)c2=O)cc1F the results were Rce1 inhib inactive, UUG fidelity -6, eIF4H inh 0, HIV Env fusion 8, CSC inhib 2, PABP polyA inh 12, MT1-MMP act inh 2 and MT1-MMP act inh RFP 1.
For O=C(NNC(=S)NCC1CCCO1)c1ccc(S(=O)(=O)N2CCOCC2)cc1 (configuration not stated) the results were Rce1 inhib inactive, eIF4H inh -5, HIV Env fusion 12, CSC inhib -1, PABP polyA inh -8, MT1-MMP act inh 0 and MT1-MMP act inh RFP 3.
COc1ccc(CNC(=O)C/C(C)=N/NC(=O)COc2cccc(C)c2)cc1 was read as Rce1 inhib inactive, UUG fidelity -10, eIF4H inh 3, HIV Env fusion 7, CSC inhib -8, PABP polyA inh 9, MT1-MMP act inh 1 and MT1-MMP act inh RFP 2.
CCOC(=O)c1cc(-c2ccccc2)n(CCC(=O)NC(C)CC)c1C (configuration not stated) was read as Rce1 inhib inactive, UUG fidelity 9, eIF4H inh -5, HIV Env fusion 12, CSC inhib -7, PABP polyA inh 0, MT1-MMP act inh 2 and MT1-MMP act inh RFP 1.
`COc1ccc(-n2c(-c3ccc(Br)cc3)c[n+]3c2SC(C)C3)cc1` (configuration not stated) gave Rce1 inhib inactive, eIF4H inh 1, HIV Env fusion 30, PABP polyA inh 20, MT1-MMP act inh -6 and MT1-MMP act inh RFP -32.
Cc1ccc2cc(COC(=O)c3cccc([N+](=O)[O-])c3)c(=O)[nH]c2c1 was read as Rce1 inhib inactive, UUG fidelity -19, eIF4H inh 2, HIV Env fusion 8, CSC inhib 1, PABP polyA inh 0, MT1-MMP act inh 2 and MT1-MMP act inh RFP 5.
Screening CCOC(=O)c1[nH]c2ccccc2c1NC(=S)Nc1cccc(C)c1C returned Rce1 inhib inactive, UUG fidelity -27, eIF4H inh -1, HIV Env fusion 17, CSC inhib -13, PABP polyA inh 15, MT1-MMP act inh -5 and MT1-MMP act inh RFP -2.
CSCC[C@@H](C(=O)NCCCCCCCCCCC(=O)N1CCN(C(=O)OC(C)(C)C)CC1)n1cc(CCO)nn1 was read as UUG fidelity -11, HIV Env fusion 3, CSC inhib -13, MT1-MMP act inh 4 and MT1-MMP act inh RFP -11.
Cc1cccc(-n2ncc3c2CCCC3NC(=O)CCc2cccnc2)c1C (configuration not stated) was read as Rce1 inhib inactive, UUG fidelity -11, eIF4H inh -13, HIV Env fusion 6, CSC inhib -10, PABP polyA inh 2, MT1-MMP act inh 5 and MT1-MMP act inh RFP -13.
`COc1cc(/C=C/C(=O)OCC(=O)N2CCCc3ccccc32)ccc1OC(F)F` gave Rce1 inhib inactive, UUG fidelity 20, HIV Env fusion 9, CSC inhib -9, MT1-MMP act inh -3 and MT1-MMP act inh RFP 3.
For COc1ccc(C(CNC(=O)c2ccc3c(c2)OCCO3)N(C)C)cc1 (configuration not stated) the results were Rce1 inhib inactive, UUG fidelity -17, eIF4H inh -4, HIV Env fusion 13, CSC inhib 0, PABP polyA inh -2, MT1-MMP act inh 1 and MT1-MMP act inh RFP 1.
Screening Cc1oc2c(c(C)cc3oc(=O)c(CC(=O)NCC(=O)NCC(=O)NCC(C)O)c(C)c32)c1C (configuration not stated) returned Rce1 inhib inactive, UUG fidelity -2, eIF4H inh -9, HIV Env fusion -9, CSC inhib 4, PABP polyA inh -7, MT1-MMP act inh 2 and MT1-MMP act inh RFP -1.
`Cc1noc(NS(=O)(=O)c2ccc(NC(=O)c3nn(-c4ccc(F)cc4)ccc3=O)cc2)c1C` gave Rce1 inhib inactive, UUG fidelity -16, eIF4H inh 0, HIV Env fusion 7, CSC inhib 2, PABP polyA inh 12, MT1-MMP act inh 2 and MT1-MMP act inh RFP -1.
CCOc1cccc(NC(=O)C(Cc2cccs2)c2nn[nH]n2)c1 (configuration not stated) was read as Rce1 inhib inactive, UUG fidelity -26, eIF4H inh 3, HIV Env fusion -63, CSC inhib -4, PABP polyA inh 2, MT1-MMP act inh -3 and MT1-MMP act inh RFP 1.
Screening CCOC(=O)c1c(CSc2ccccc2)n(C)c2ccc(O)cc12 returned Rce1 inhib inactive, UUG fidelity -6, eIF4H inh 3, HIV Env fusion 15, CSC inhib -4, PABP polyA inh -3, MT1-MMP act inh 1 and MT1-MMP act inh RFP -8.
COc1[nH]c(/N=C/c2ccccc2)c(C#N)c1C#N was read as Rce1 inhib inactive, UUG fidelity -16, eIF4H inh inconclusive, HIV Env fusion -19, CSC inhib -12, PABP polyA inh inconclusive, MT1-MMP act inh -86 and MT1-MMP act inh RFP -1.
`COCCNC(=O)C1CCCN(C(=O)c2cccnc2Oc2ccccc2)CC1` (configuration not stated) gave UUG fidelity -5, HIV Env fusion 6, MT1-MMP act inh 3 and MT1-MMP act inh RFP 5.
For C=C1CCN([C@@H](Cc2ccccc2)C(=O)N2CCOCC2)S(=O)(=O)c2ccccc21 the results were Rce1 inhib inactive, UUG fidelity -11, HIV Env fusion 31, CSC inhib -5, MT1-MMP act inh 2 and MT1-MMP act inh RFP 0.

Ordered by SMILES length (descending): some entries from above.
Screening Cc1oc2c(c(C)cc3oc(=O)c(CC(=O)NCC(=O)NCC(=O)NCC(C)O)c(C)c32)c1C (configuration not stated) returned Rce1 inhib inactive, UUG fidelity -2, eIF4H inh -9, HIV Env fusion -9, CSC inhib 4, PABP polyA inh -7, MT1-MMP act inh 2 and MT1-MMP act inh RFP -1.
Cc1ccc2cc(COC(=O)c3cccc([N+](=O)[O-])c3)c(=O)[nH]c2c1 was read as Rce1 inhib inactive, UUG fidelity -19, eIF4H inh 2, HIV Env fusion 8, CSC inhib 1, PABP polyA inh 0, MT1-MMP act inh 2 and MT1-MMP act inh RFP 5.
`COc1ccc(-n2c(-c3ccc(Br)cc3)c[n+]3c2SC(C)C3)cc1` (configuration not stated) gave Rce1 inhib inactive, eIF4H inh 1, HIV Env fusion 30, PABP polyA inh 20, MT1-MMP act inh -6 and MT1-MMP act inh RFP -32.

Following part.
`CS(=O)(=O)Nc1ccc(S(=O)(=O)N2CCOCC2)cc1` gave Rce1 inhib inactive, UUG fidelity -1, eIF4H inh -1, PABP polyA inh -2, MT1-MMP act inh 1 and MT1-MMP act inh RFP 1.
For COc1ccc(C(CNC(=O)COc2ccc(C)c(C)c2)N2CCCCC2)cc1 (configuration not stated) the results were Rce1 inhib inactive, UUG fidelity 6, eIF4H inh -8, HIV Env fusion 15, PABP polyA inh 3, MT1-MMP act inh 4 and MT1-MMP act inh RFP 1.
Screening CCOc1ccc(/C=C(/NC(=O)c2ccccc2)C(=O)NCCC(=O)O)cc1 returned Rce1 inhib inactive, eIF4H inh 6, HIV Env fusion -16, CSC inhib 21, PABP polyA inh 4, MT1-MMP act inh 2 and MT1-MMP act inh RFP 4.
Screening O=C(CSc1cccc2cccnc12)N/N=C/c1cccc(O)c1 returned Rce1 inhib inactive, eIF4H inh -3, HIV Env fusion 13, CSC inhib 5, PABP polyA inh 0, MT1-MMP act inh 3 and MT1-MMP act inh RFP 1.
`COc1ccc(C(C)(C)C)cc1S(=O)(=O)NCC1CCCO1` (configuration not stated) gave UUG fidelity -10, HIV Env fusion 4, MT1-MMP act inh 1 and MT1-MMP act inh RFP -2.
`Cc1ccc(C)c(Cn2cnc3c(oc4ccccc43)c2=O)c1` gave Rce1 inhib inactive, UUG fidelity -16, eIF4H inh 1, HIV Env fusion 7, CSC inhib 8, PABP polyA inh 3, MT1-MMP act inh 3 and MT1-MMP act inh RFP -3.
C/C(=C\c1ccco1)C1C(C#N)=C(N)OC2=C1C(=O)CC(C)(C)C2 (configuration not stated) was read as Rce1 inhib inactive, UUG fidelity 4, eIF4H inh 46, HIV Env fusion -8, CSC inhib 0, PABP polyA inh 39, MT1-MMP act inh -11 and MT1-MMP act inh RFP 3.
For N#CCC(=O)Nc1ccc(C(=O)OC(C(=O)Nc2cc(C(F)(F)F)ccc2Cl)c2ccccc2)cc1 (configuration not stated) the results were Rce1 inhib inactive, UUG fidelity -16, HIV Env fusion 12, CSC inhib 14, MT1-MMP act inh -2 and MT1-MMP act inh RFP -5.
Screening CCOC(=O)c1cc2cc(OCc3ccccc3)ccc2nc1C returned Rce1 inhib inactive, UUG fidelity -7, eIF4H inh -14, HIV Env fusion 8, CSC inhib 19, PABP polyA inh 15, MT1-MMP act inh -1 and MT1-MMP act inh RFP -4.
For CCOc1ccccc1N1CCN(CC(=O)N(C)CC(=O)Nc2ccccc2CC)CC1 the results were UUG fidelity 16, HIV Env fusion -1, MT1-MMP act inh 1 and MT1-MMP act inh RFP -2.
For CCCOc1ccc(C2(C(=O)O)CCCC2)cc1 the results were Rce1 inhib inactive, UUG fidelity -12, eIF4H inh 6, HIV Env fusion -26, CSC inhib -11, PABP polyA inh -6, MT1-MMP act inh 5 and MT1-MMP act inh RFP 6.
OC(COCc1ccccc1F)CN1CCCCC1 (configuration not stated) was read as Rce1 inhib inactive, UUG fidelity -4, HIV Env fusion -6, CSC inhib 3, MT1-MMP act inh 8 and MT1-MMP act inh RFP 8.
For Cc1ccccc1C(=O)N(C)[C@H]1C[C@H]2c3[nH]c4ccccc4c3CCN2C[C@H]1[C@H](C)O the results were UUG fidelity 4, HIV Env fusion -12, MT1-MMP act inh 0 and MT1-MMP act inh RFP 6.
`O=C(Nc1ccc(F)cc1)N[C@@H]1CC[C@@H](CCn2cc(-c3ccc(F)cc3)nn2)O[C@@H]1CO` gave UUG fidelity -23, HIV Env fusion 13[16.7 µM], MT1-MMP act inh 6 and MT1-MMP act inh RFP -7.
`COCCN(C(=O)Cn1c(C(F)(F)F)nc2ccccc21)c1c(N)n(Cc2ccccc2)c(=O)[nH]c1=O` gave Rce1 inhib inactive, UUG fidelity 3, eIF4H inh -18, HIV Env fusion -7, CSC inhib -12, PABP polyA inh 5, MT1-MMP act inh -1 and MT1-MMP act inh RFP -1.
CCCCn1c(N)c(N(CC(C)C)C(=O)CCN2C(=O)C3CC=CCC3C2=O)c(=O)[nH]c1=O (configuration not stated) was read as UUG fidelity -16, HIV Env fusion -32, MT1-MMP act inh 3 and MT1-MMP act inh RFP 5.
For CCN(CC)C(=O)C(C)N(C#N)c1nc(C)cc(C)n1 (configuration not stated) the results were Rce1 inhib inactive, UUG fidelity -21, eIF4H inh -10, HIV Env fusion 11, CSC inhib -15, PABP polyA inh 6, MT1-MMP act inh 2 and MT1-MMP act inh RFP 3.
CC(=O)NC1CC2CCCC(C1)N2C(=O)Nc1ccccc1C (configuration not stated) was read as UUG fidelity -16, HIV Env fusion -30, MT1-MMP act inh 1 and MT1-MMP act inh RFP -2.
